Source: PubChem BioAssay (several laboratories)
GALR2 ag: activates the human galanin receptor 2; activation, %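 (tested at 5 µM)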; GALR2-expressing cells, agonist activation read-out; O43603; AID 803; actives 0.48% (n = 140,000);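 active = above mean plus 3 SD of all compounds, about 5% in these data, not always enough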;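 also: 0% = vehicle buffer wells and 100% = reference agonist at full effect; tested in CHO reporter cells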
RGS16-Gao HTS: RGS16-Galphao interaction regulator (human) | binding response (% of control), % at 10 µM | bead-based flow cytometry RGS16-Galphao binding, fluorescence; actives lie on both sides | actives 0.38% (n = 220,000) | AID 1441;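 active = below 25% or above 175%, edge rows of some plates excepted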;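 also: Galphao activated by GDP with aluminum fluoride before binding; 100% = wells without compound and 0% = beads without RGS; some results beyond the cut were filed as inactive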
HSV replic up: HSV replication enhancement | actives 0.005% (n = 220,000) | HSV replication augmentation in cells, fold increase | AID 1956 | maximum fold increase;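 active = peak rise of 1.5-fold or more in the series; tested in PC3 cells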;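 also: first round at 10 µM; read as green reporter fluorescence; hits show the peak of a series up to 25 µM; 1 = signal of infected wells without compound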
PKD1 kinase inh: PKD1 (human) kinase inhibition; Q15139; PKD1 kinase fluorescence polarization assay; actives 0.056% (n = 200,000); inhibition, %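 (about 10 µM by stock and volumes)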;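 active = inhibition of 50% or more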;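 also: controls were vehicle for no effect and a reference inhibitor for full effect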
Target sequence (Q15139 whole entry, looked up): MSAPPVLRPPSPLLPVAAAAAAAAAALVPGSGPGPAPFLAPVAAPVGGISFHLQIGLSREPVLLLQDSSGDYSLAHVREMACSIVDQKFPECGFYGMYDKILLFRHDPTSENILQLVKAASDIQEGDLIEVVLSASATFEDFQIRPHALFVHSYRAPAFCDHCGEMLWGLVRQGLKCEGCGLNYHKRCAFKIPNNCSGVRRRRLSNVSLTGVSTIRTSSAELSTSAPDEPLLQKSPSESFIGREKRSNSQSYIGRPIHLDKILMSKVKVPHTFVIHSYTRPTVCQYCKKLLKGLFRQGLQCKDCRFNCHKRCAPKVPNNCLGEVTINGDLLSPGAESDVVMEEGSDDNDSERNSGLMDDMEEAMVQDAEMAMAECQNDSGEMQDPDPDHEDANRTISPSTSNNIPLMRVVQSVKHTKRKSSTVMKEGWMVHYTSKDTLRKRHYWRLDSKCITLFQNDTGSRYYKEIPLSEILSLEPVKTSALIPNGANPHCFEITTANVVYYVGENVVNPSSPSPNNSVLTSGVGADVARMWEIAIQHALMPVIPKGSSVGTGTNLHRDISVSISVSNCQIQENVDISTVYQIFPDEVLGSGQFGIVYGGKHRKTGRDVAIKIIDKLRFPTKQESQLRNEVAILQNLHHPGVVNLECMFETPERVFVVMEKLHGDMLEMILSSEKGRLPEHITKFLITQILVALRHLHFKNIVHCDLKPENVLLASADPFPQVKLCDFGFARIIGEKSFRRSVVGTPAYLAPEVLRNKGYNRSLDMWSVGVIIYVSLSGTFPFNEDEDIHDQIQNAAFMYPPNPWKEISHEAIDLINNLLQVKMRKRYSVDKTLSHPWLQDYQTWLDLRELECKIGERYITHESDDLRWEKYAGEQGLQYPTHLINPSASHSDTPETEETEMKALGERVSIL
Insulin prom inh: TRM-6 insulin promoter activity inhibition; TRM-6 cells (human fetal islet line), insulin promoter-eGFP reporter, imaging; reporter expression induced with tamoxifen; actives 0.9% (n = 130,000); inhibition, % at 2 µM;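 active = inhibition above the mean plus 3 SD, with well images judged a real hit on visual review, cut at about 60% in these data, passing the limit was not always enough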
Insulin prom inh cell count: further read-out of Insulin prom inh, marked with its call; normalized cell count, %; measured here: cell count, toxicity; reference of the scale not given here;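 cells exposed to compound for 48 h; stained nuclei by imaging scaled within each plate; lower means fewer cells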
HSV replic up primary fold: further read-out of HSV replic up, marked with its call; fold increase; compound at 10 µM; measured here: primary screen fold increase 10 uM; tested in PC3 cells;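 GFP signal in the first replicate; 1 = infected wells without compound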
An asterisk follows results filed as active; i = inactive; · = not tested or not shown.

SMILES | GALR2 ag | RGS16-Gao HTS | HSV replic up | HSV replic up primary fold | PKD1 kinase inh | Insulin prom inh | Insulin prom inh cell count
CCO[C@@H]1OC(C(=O)NCc2ccccc2)=C[C@H](c2cn(C(C)=O)c3ccccc23)[C@H]1CCCO | · | 101 | i | 0.82 | -4 | · | ·
C#Cc1ccc([C@@H]2C=C(C(=O)OCC=C)O[C@H](OCCCCO)C2)cc1 | · | 94 | i | 1 | 8 | · | ·
Nc1nc(SCC(=O)c2ccc([N+](=O)[O-])cc2)n[nH]1 | · | 92 | i | 0.9 | -7 | -29 | 125
O=c1cc(-c2ccccc2)[nH]n1-c1nc2ccccc2s1 | -1.9 | 99 | i | 0.99 | 1 | · | ·
Cn1c(SCC(=O)Nc2ccccc2F)nnc1-c1ccc(S(=O)(=O)N2CCOCC2)cc1 | -0.5 | 102 | i | 0.87 | 7 | 4 | 71
O=C(Nc1nccs1)c1ccccn1 | · | 99 | i | 1 | -5 | -78 | 64
Cn1cc(Br)cc2nc(C(F)(F)F)nc1-2 | -1.5 | 102 | i | 0.9 | -10 | -41 | 142
Cc1ccc(OCCCc2c(C)n[nH]c2C)cc1 | · | 97 | i | 0.98 | 2 | · | ·
CCOc1ccccc1N1CCN(C(=O)c2ccncc2)CC1 | -0.3 | 102 | i | 1 | -6 | 38 | 125
Cc1nnc(NC(=O)CCNC(=O)c2ccccc2Cl)s1 | · | 103 | i | 0.92 | -5 | 42 | 123
COc1ccc(C(C(=O)OCCN(C)C)c2ccccc2)cc1 (centres undefined) | -5.1 | 94 | i | 0.98 | -10 | 6 | 119
CCOC(=O)c1cnn(C(=O)c2ccccc2)c1N | -0.5 | 127 | i | 0.99 | -5 | · | ·
Cc1cc(C)cc(NC(=S)N(CCCN2CCN(C)CC2)Cc2cccs2)c1 | · | 106 | i | 0.78 | -7 | · | ·
COc1ccc(-n2c(=O)c3ccccc3n(CC(=O)NC3CCCCC3)c2=O)cc1OC | · | 84 | i | 0.85 | -5 | · | ·
CCOC(=O)CNC(=O)C(Cc1ccccc1)NC(=O)OCc1ccccc1 (centres undefined) | · | 103 | i | 0.89 | 8 | -7 | 131
CC(=O)c1cc(C#N)c(SCc2ccccn2)nc1C | · | 98 | i | 0.87 | · | · | ·
O=C(Oc1ccc(OC(=O)N2CCOCC2)cc1)c1ccccc1 | -0.9 | 93 | i | 0.97 | -2 | -188 | 108
Cc1cc(C)nc(SCc2nnc(SCC(=O)N3CCOCC3)o2)n1 | -0.6 | 100 | i | 1.1 | 7 | · | ·
O=C(NC(=S)N1CCN(C(c2ccccc2)c2ccccc2)CC1)c1ccc(S(=O)(=O)N2CCOCC2)cc1 | -0.3 | 101 | i | 0.87 | 20 | 40 | 103
CCC1(CC)Cc2ccccc2-c2nc3ccccc3c(=O)n21 | -0.3 | 101 | i | 0.95 | -1 | 23 | 67
CC1=C(C(=O)OCc2ccccc2)C(c2ccoc2)C(C#N)=C(N)O1 (centres undefined) | -1.0 | 99 | i | 1 | 0 | -86 | 82
Cc1cccnc1N(C(=O)Nc1ccccc1)C1=NCC(C)(C)S1 | -1.1 | 104 | i | 0.84 | 1 | -23 | 56
COc1cc(C(=O)NCC2(N3CCCCC3)CCCCC2)ccc1OCC(=O)N1CCOCC1 | · | 99 | i | 0.99 | · | · | ·
COc1cc(-c2[nH]ncc2CN(C)Cc2nonc2C)cc(OC)c1OC | · | 93 | i | 0.98 | -1 | · | ·
COc1ccc(NC(=O)Cc2c(Sc3ccccc3)c3ccccc3n2C)cc1 | -0.7 | 98 | i | 1 | -3 | 16 | 76
O=C(CCc1[nH]c2ccccc2c1Sc1ccccc1)N(CCO)CCO | -0.3 | 107 | i | 0.93 | -3 | 7 | 121
CCOC(=O)NCc1ccc(S(=O)(=O)Nc2c(C)cccc2C)cc1 | 0.2 | 99 | i | 1.1 | 0 | -4 | 92
CCOC(=O)c1c(NC(=O)COC(=O)CCS(=O)(=O)c2ccc(C)cc2)sc(C)c1C | -0.4 | 98 | i | 0.92 | -5 | · | ·
COc1ccccc1NC(=O)N(Cc1ccco1)Cc1cc2ccc(C)c(C)c2[nH]c1=O | -1.6 | 95 | i | 0.73 | -1 | 13 | 62
CC(C)CCNC(=O)c1cc([N+](=O)[O-])ccc1N1CCOCC1 | -0.5 | 105 | i | 0.96 | 3 | · | ·
Cc1ccc2c3c1C(=O)C(=O)N3C(C)(C)CC2C (centres undefined) | -1.6 | 91 | i | 0.93 | 6 | · | ·
Cc1cc(C(=O)OCC(=O)NCCC(C)C)c2ccccc2n1 | -1.7 | 98 | i | 1.1 | 3 | 37 | 48
Cc1cccc(N(CC(=O)N/N=C/c2ccccc2C(=O)O)S(C)(=O)=O)c1C | · | 96 | i | 0.99 | · | · | ·
O=C(Cc1c(F)cccc1Cl)N(Cc1ccccc1)c1ccccn1 | · | 95 | i | 0.94 | -4 | · | ·
CCS(=O)(=O)N1CCC(C(=O)NCCCN2CCCCCC2)CC1 | -2.6 | 101 | i | 1.1 | -11 | · | ·
CCOC(=O)C1CCCN(Cc2ccccc2OCC)C1 (centres undefined) | -1.8 | 88 | i | 0.96 | 5 | 36 | 107
Cn1c(CC(=O)Nc2ccccc2)nnc1SCCOc1ccccc1 | 0.6 | 101 | i | 0.77 | -5 | 0 | 68
COc1cc(C#CC#CCN2CCCCC2)ccc1O | -1.9 | 98 | i | 1 | -3 | 39 | 111
N=C1C(c2nc3ccccc3s2)=C(O)CN1C1CCCCC1 | · | 101 | i | 0.69 | -7 | · | ·
NNc1nc2sc3c(c2c(=O)[nH]1)CCc1ccccc1-3 | 0.6 | 100 | i | 0.9 | 6 | · | ·
COc1ccc(CCNC(=O)C(C)SCc2ccccc2)cc1 (centres undefined) | · | 104 | i | 1.1 | -3 | · | ·
CSc1nnc(C)c(=O)n1COC(=O)COc1ccccc1F | · | 99 | i | 0.87 | -6 | 28 | 116
CN1OC(CC(=O)O)N(c2ccc(Cl)cc2)C1=O (centres undefined) | -2.7 | 99 | i | 1.2 | -1 | 21 | 66
CCOC(=O)C1CCN(C(=O)c2cc(C(C)(C)C)nn2Cc2ccccc2)CC1 | · | 96 | i | 1 | · | · | ·
Cc1c(NC(=O)c2cc(C3CC3)on2)c(=O)n(-c2ccccc2)n1C | -4.7 | 102 | i | 0.88 | -4 | · | ·

Some of these compounds in order of count of non-hydrogen atoms, largest number first:
SMILES | GALR2 ag | RGS16-Gao HTS | HSV replic up | HSV replic up primary fold | PKD1 kinase inh | Insulin prom inh | Insulin prom inh cell count
CCOC(=O)C1CCN(C(=O)c2cc(C(C)(C)C)nn2Cc2ccccc2)CC1 | · | 96 | i | 1 | · | · | ·
Cn1c(CC(=O)Nc2ccccc2)nnc1SCCOc1ccccc1 | 0.6 | 101 | i | 0.77 | -5 | 0 | 68
Cc1c(NC(=O)c2cc(C3CC3)on2)c(=O)n(-c2ccccc2)n1C | -4.7 | 102 | i | 0.88 | -4 | · | ·
COc1ccc(CCNC(=O)C(C)SCc2ccccc2)cc1 (centres undefined) | · | 104 | i | 1.1 | -3 | · | ·

Other results.
SMILES | GALR2 ag | RGS16-Gao HTS | HSV replic up | HSV replic up primary fold | PKD1 kinase inh | Insulin prom inh | Insulin prom inh cell count
CSc1cccc(NC(=S)NCCCO)c1 | · | 79 | i | 0.95 | · | · | ·
O=c1[nH]c(=O)n(Cc2ccccc2)c2nc(-c3cccs3)n(CCO)c12 | · | 94 | i | 1.1 | · | · | ·
O=c1[nH]c(O)c(/C=C2\C=Nc3ccccc32)[nH]1 | · | 63 | i | 1.1 | · | · | ·
CC(C)(C)C1CCc2c(sc(NC(=O)c3cc(C4CC4)on3)c2C#N)C1 (centres undefined) | -0.1 | 104 | i | 0.85 | -6 | · | ·
CN(C)c1ccc(-c2ccccc2)nn1 | -2.7 | 84 | i | 1 | -9 | 14 | 153
COc1ccccc1NC(=O)C(C)Sc1nnnn1C (centres undefined) | · | 118 | i | 1 | · | · | ·
Cc1ccc2cccc(NC(=S)NC(=O)c3ccn(C)n3)c2n1 | -1.7 | · | i | 1.1 | 2 | -267 | 55
CC(C)(C(=O)c1ccccc1)/[N+]([O-])=C/c1ccc(F)cc1 | -1.6 | · | i | 1 | -5 | -10 | 129
O=C(/C=C/NNC(=O)c1ccccc1)c1ccc(Br)cc1 | -1.2 | 106 | i | 1 | -10 | -4 | 100
Cn1c(=O)c2c(SCc3ccccn3)nc(C3CC3)nc2n(C)c1=O | -0.8 | 93 | i | 0.71 | -10 | 40 | 171
Fc1ccc(-n2cc(-c3ccccc3)c3c(NN4CCOCC4)ncnc32)cc1 | 0.3 | 182 | i | 0.94 | -15 | 17 | 90
Cc1nc(/C(N)=N/OC(=O)c2ccccc2Cl)c(C(F)(F)F)o1 | · | 101 | i | 1.1 | · | · | ·
COc1ccc2cc3cc(C(=O)NCc4cccs4)oc3nc2c1 | -2.1 | 96 | i | 0.91 | -3 | 7 | 100
Cc1ccc(CNc2ccc3c(c2)ncn3C(C)C)cc1 | · | 99 | i | 0.9 | · | · | ·
CCCNC(=O)c1c(N)n(-c2ccc3c(c2)OCO3)c2nc3ccccc3nc12 | 0.4 | 97 | i | 0.96 | -5 | 31 | 130
O=C(Nc1ccc(N2CCOCC2)c(Cl)c1)c1cc(F)c(F)cc1Cl | 0.0 | 104 | i | 0.82 | -6 | 17 | 76
Nc1nc2c([N+](=O)[O-])cccc2s1 | · | 103 | i | 0.88 | -6 | · | ·
NS(=O)(=O)c1ccc(NC(=S)NC(=O)c2cccs2)cc1 | · | 103 | i | 0.92 | · | · | ·
CCc1ccc(S(=O)(=O)NC(CC(=O)O)c2ccccc2)cc1 (centres undefined) | -1.3 | 77 | i | 0.92 | -8 | -14 | 67
CCOC(=O)C1CCN(CCC(=O)Nc2ccccc2)CC1 | -1.6 | 97 | i | 0.98 | -8 | 12 | 112
NNc1nc2cccnc2n(CCNc2ncc(C(F)(F)F)cc2Cl)c1=O | · | 102 | i | 0.96 | 1 | -37 | 62
Cc1nc(CN2CCOCC2)cc(=O)[nH]1 | -1.7 | 102 | i | 0.78 | 8 | -4 | 104
COc1cccc(C(=O)N/N=C2\SCC(=O)N2Cc2ccc3c(c2)OCO3)c1 | -1.8 | 100 | i | 0.83 | -5 | 11 | 68
CCOC(=O)C1CCN(C(=O)CN(c2cccc(OC)c2)S(=O)(=O)c2ccccc2)CC1 | -1.4 | 106 | i | 1 | -6 | -58 | 100
O=C(COC(=O)/C=C/c1ccccc1)NCc1ccccc1Cl | · | 106 | i | 0.98 | -7 | -42 | 134
O=C(Cc1cccs1)N/N=C/C=C\c1ccccc1[N+](=O)[O-] | · | 115 | i | 0.88 | 2 | 22 | 187
Cc1cc(C(=O)N/N=C/c2ccc3c(c2)OCO3)c(C)n1-c1ccc(F)cc1 | · | 45 | i | 0.96 | -3 | -21 | 84
COc1cc(OC)cc(-n2nc(C(=O)N3CC(C)CC(C)C3)c3ccccc3c2=O)c1 (centres undefined) | -2.5 | 106 | i | 0.73 | 0 | 63 | 74
CC(C)n1nc(CC(=O)O)c2ccccc2c1=O | · | 97 | i | 1 | 10 | 33 | 83
Cc1ccc(S(=O)(=O)CCC(=O)OCc2ccc(Cl)c(Cl)c2)cc1 | 0.5 | 68 | i | 0.89 | -1 | · | ·
COC(=O)c1cc2ccsc2n1Cc1nc(-c2ccc(Cl)cc2)oc1C | -0.9 | 115 | i | 0.89 | -10 | · | ·
COc1ccccc1C(=O)Nc1ccc(NC(=O)c2ccco2)c(C)c1 | -0.6 | 88 | i | 0.9 | 1 | -63 | 199
O=C(CSc1ccc2ccccc2c1)NCCc1ccc(O)c(O)c1 | · | 80 | i | 0.72 | 0 | · | ·
COc1ccc(-c2cc(-c3n[nH]c(=S)n3-c3ccccc3OC)[nH]n2)cc1 | 0.8 | 93 | i | 1.1 | -7 | -14 | 121
COc1ccc(C(=O)NC2CCN(CC(=O)Nc3cccc(C)c3)CC2)cc1OC | -1.9 | 102 | i | 0.99 | -2 | 16 | 117
O=C(O)C(CCCCN1C(=O)C2C3C=CC(C3)C2C1=O)N1C(=O)C2C3C=CC(C3)C2C1=O (centres undefined) | -4.1 | 103 | i | 0.88 | -4 | 54 | 133
O=C(c1ccccc1)c1c[nH]c(C(=O)NNc2ccccc2)c1 | · | 101 | i | 0.95 | -7 | · | ·
Cc1ccc(CN(Cc2cccnc2)C(=S)Nc2cc(Cl)ccc2C)cc1 | · | 104 | i | 0.92 | -6 | · | ·
O=C(CCc1ccc(S(=O)(=O)NC2CCCCC2)cc1)NCc1cccnc1 | · | 107 | i | 1 | -2 | -20 | 53

Rows were taken by chance. About 1.3% of those tested had a hit in this group.
